Assay outcomes deposited in PubChem by National Center for Advancing Translational Sciences (NCATS).
NPR1 antag – Natriuretic polypeptide receptor (hNpr1) antagonism - Primary qHTS. HEK293 hNpr1 GloSensor cGMP, ANP-stimulated luminescence. 1.6% of 76,000 active. Potency, µM (highest dose often 46.3 µM), for the others: at the top dose activity change, negative = inhibition, actives largely listed as inhibitors. Atrial natriuretic peptide receptor 1 (Homo sapiens), P16066; active = well fitted inhibition curve with a large enough effect; inconclusive = small, poorly fitted or top-dose-only effect; inactive = no such curve, though single readings can be large or run the other way;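 further: nearly all actives have a fitted effect of over 60% in size; nearly all hits also lower the signal before the agonist is added; a reference antagonist and vehicle were the controls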
Target sequence (P16066 whole entry, looked up): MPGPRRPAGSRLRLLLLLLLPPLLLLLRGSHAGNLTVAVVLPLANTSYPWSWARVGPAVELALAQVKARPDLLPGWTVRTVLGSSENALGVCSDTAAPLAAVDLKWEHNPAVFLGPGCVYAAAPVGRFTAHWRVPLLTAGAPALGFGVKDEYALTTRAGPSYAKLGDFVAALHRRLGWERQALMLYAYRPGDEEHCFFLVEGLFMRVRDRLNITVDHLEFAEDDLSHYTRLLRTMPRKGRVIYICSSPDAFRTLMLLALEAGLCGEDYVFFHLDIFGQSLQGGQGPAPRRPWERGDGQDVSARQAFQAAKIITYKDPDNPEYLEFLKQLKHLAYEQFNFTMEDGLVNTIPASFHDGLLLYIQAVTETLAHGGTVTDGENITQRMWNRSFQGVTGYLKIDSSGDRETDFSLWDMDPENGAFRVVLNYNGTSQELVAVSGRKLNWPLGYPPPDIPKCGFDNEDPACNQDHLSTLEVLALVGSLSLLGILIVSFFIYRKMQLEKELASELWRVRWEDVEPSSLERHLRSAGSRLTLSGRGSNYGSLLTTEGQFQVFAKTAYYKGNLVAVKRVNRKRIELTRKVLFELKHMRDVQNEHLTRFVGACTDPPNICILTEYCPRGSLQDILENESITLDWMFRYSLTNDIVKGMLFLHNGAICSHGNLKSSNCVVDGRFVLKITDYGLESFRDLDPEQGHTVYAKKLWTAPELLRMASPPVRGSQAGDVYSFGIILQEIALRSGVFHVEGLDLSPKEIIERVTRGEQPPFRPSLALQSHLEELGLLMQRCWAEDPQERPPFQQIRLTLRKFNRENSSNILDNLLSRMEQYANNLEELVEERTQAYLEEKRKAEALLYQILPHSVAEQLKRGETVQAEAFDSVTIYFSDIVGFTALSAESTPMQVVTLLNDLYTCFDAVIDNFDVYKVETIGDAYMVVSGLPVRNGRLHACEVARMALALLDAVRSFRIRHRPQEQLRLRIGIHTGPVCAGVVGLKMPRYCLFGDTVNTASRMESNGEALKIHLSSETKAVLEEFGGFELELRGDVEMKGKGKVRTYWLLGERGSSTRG
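HEK293 cells stably expressing human Npr1 and cGMP GloSensor pGS-40F, loaded 2 h with 2% GloSensor reagent, given compound 30 min at room temperature. Luminescence read before and 20 min after 0.1 nM hNppA.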
* hit, by the source's call; [ ] = another dose, or the depositor's remark. On the % scale 0 is the no-effect control and ±100 the full control effect; potency means the concentration at half of the fitted maximal effect. A portion of the library; rates above refer to the full screens.

For COc1ccc(C2Cn3nnc(-c4noc(-c5ccsc5)n4)c3CO2)cc1 (stereo unspecified) the results were NPR1 antag 2.3%.
CCc1ccc(NC(=O)c2cc3n(n2)CC(c2ccc(Cl)cc2)OC3)cc1 (stereo unspecified) was read as NPR1 antag 11.2µM*.
Cc1ccc(S(=O)(=O)N2C[C@@H](F)C[C@H]2C(=O)N2CCc3ccccc3C2)cc1 was read as NPR1 antag -14.3%.
O=C(NCc1ccco1)C1CC(=O)N(c2n[nH]c3ccccc23)C1 (stereo unspecified) was read as NPR1 antag -0.7%.
CC(C)CCNC1(Cc2cc(CN3CCOCC3)on2)COC1 was read as NPR1 antag 5.9%[70.6 µM].
`O=C(c1ccncc1)N1CCC(Oc2ccccc2)C1` (stereo unspecified) gave NPR1 antag 0.0%.
For COc1ccc(-c2cc3c(=O)n(CCNC(=O)Cc4ccsc4)ccn3n2)cc1 the results were NPR1 antag -20.7%.
`CC(Oc1ccccc1)C(=O)N1CCN(C(=O)c2nnn3c2COC(c2ccc(Cl)cc2)C3)CC1` (stereo unspecified) gave NPR1 antag inconclusive.
For CC(C)CN1C(=O)CO[C@H](c2ccc(NC(=O)C3CCC3)cc2)[C@H]1CO the results were NPR1 antag -10.9%[70.6 µM].
`COc1ccc(CCC(=O)N2CCCCCCNC(=O)[C@@H]3CCC[C@@H]32)cc1` gave NPR1 antag 0.0%.
Screening Cc1nc2ccc(C(=O)N[C@@H]3CCOC[C@H]3Oc3ccccn3)cc2s1 returned NPR1 antag 20.5%.
`Cc1cc(C)cc(C(=O)N2CCCC3(C2)NC(=O)N(Cc2ccc(Cl)cc2)C3=O)c1` (stereo unspecified) gave NPR1 antag 1.8%.

The final 6 compounds of the section before lead into the next.
For COc1ccc(-c2cc3c(=O)n(CCNC(=O)Cc4ccsc4)ccn3n2)cc1 the results were NPR1 antag -20.7%.
`CC(Oc1ccccc1)C(=O)N1CCN(C(=O)c2nnn3c2COC(c2ccc(Cl)cc2)C3)CC1` (stereo unspecified) gave NPR1 antag inconclusive.
For CC(C)CN1C(=O)CO[C@H](c2ccc(NC(=O)C3CCC3)cc2)[C@H]1CO the results were NPR1 antag -10.9%[70.6 µM].
`COc1ccc(CCC(=O)N2CCCCCCNC(=O)[C@@H]3CCC[C@@H]32)cc1` gave NPR1 antag 0.0%.
Screening Cc1nc2ccc(C(=O)N[C@@H]3CCOC[C@H]3Oc3ccccn3)cc2s1 returned NPR1 antag 20.5%.
`Cc1cc(C)cc(C(=O)N2CCCC3(C2)NC(=O)N(Cc2ccc(Cl)cc2)C3=O)c1` (stereo unspecified) gave NPR1 antag 1.8%.
Screening CCOc1ccc(NC(=O)Cn2c(=O)c(-c3noc(CC)n3)c3n(c2=O)CCCC3)cc1 returned NPR1 antag 4.5%.
For CC(C)Oc1cccc2c1c(NC(=O)c1cccnn1)nn2Cc1ccccc1 the results were NPR1 antag -1.6%.
Screening CC1=C[C@@H](CNC(=O)CCCC(=O)O)[C@H](C(C)C)C[C@H]1Cc1nc2ccc(C)cc2[nH]1 returned NPR1 antag -19.7%[70.6 µM].
Screening O=C1CCN(C(=O)c2ccccc2)CCCC(C(=O)N2CCN(Cc3ccccc3F)CC2)CCN1 (stereo unspecified) returned NPR1 antag 2.8%.
For Cc1ccc(CC(=O)N2CCC[C@H]2c2nc(-c3ccccc3Cl)no2)cc1 the results were NPR1 antag -14.0%.
`Cn1nc(C(=O)N2CCn3nc(Cc4ccccc4)cc3C2)ccc1=O` gave NPR1 antag -1.4%.
COCc1cc([C@H]2N[C@@](C)(C(=O)OC)[C@H]3C(=O)N(C)C(=O)[C@@H]23)ccc1OC was read as NPR1 antag -0.6%.
For COCCn1ccnc1CN1CCn2nc(C(O)C3CC3)cc2C1 (stereo unspecified) the results were NPR1 antag -0.3%.
CN1CC2(CCN(C(=O)NCc3ccc(F)cc3)CC2)CC1C(=O)N1CCOCC1 (stereo unspecified) was read as NPR1 antag -12.4%.
Screening Cc1ccccc1[C@H]1C[C@@H](O)[C@@H](O)[C@@H]1NS(=O)(=O)c1ccc(C#N)cc1 returned NPR1 antag -0.6%[70.6 µM].
For CCCNC(=O)NC[C@@H]1C=C(C)[C@H](Cc2nc3ccc(OC)cc3[nH]2)C[C@H]1C(C)C the results were NPR1 antag inconclusive.
`COc1ccc(C(=O)NC(C(=O)NCC(C)C)C2CCN(C(=O)c3ccccc3F)CC2)cc1` (stereo unspecified) gave NPR1 antag 6.3%.
For O=C(COc1ccc(F)cc1)N1CC(c2nc(CCOCC3CCOCC3)no2)C1 the results were NPR1 antag 0.0%.
Cc1cnc2c(C(=O)N[C@H](C3CCNCC3)C3CC(O)C3)cnn2c1 (stereo partly specified) was read as NPR1 antag 6.5%.
`CCNC(=O)N1CC(C(=O)N2CCCC(C(=O)OCC)C2)CC(c2ccc(F)c(C)c2)C1` (stereo unspecified) gave NPR1 antag -1.7%.
`COc1cc(CNC(=O)c2cc(-c3cccc(N(C)C)c3)cc3ncn(C)c23)ccn1` gave NPR1 antag 4.0%[70.6 µM].
Screening Cc1ccc2cc(C3(O)CCN(C(=O)[C@@H](N)Cc4cnc[nH]4)CC3)ccc2n1 returned NPR1 antag -0.5%.
For Fc1ccc(-c2cnc([C@@H]3COCCN3Cc3cnc4ccccc4c3)[nH]2)cc1 the results were NPR1 antag -28.7%[70.6 µM].
`Cc1ncc(C(=O)N2CCC3(CC2)[C@H](O)C[C@@H]3OCCO)c(=O)[nH]1` gave NPR1 antag -21.5%.
`COCCn1cnc2ccc(-c3cccnc3OC)nc2c1=O` gave NPR1 antag 5.1%[70.6 µM].
For COc1ccc(C(=O)N2CCCN(S(C)(=O)=O)C(c3ccccc3)CC(=O)NCC2)c(OC)n1 (stereo unspecified) the results were NPR1 antag -12.6%.
`O=C(c1ccccc1F)N1CCC2(CC1)CCN(CCc1ccccc1)c1ccccc1O2` gave NPR1 antag -2.5%.
For COCC1CN(C)CC12CCN(S(=O)(=O)c1cnc[nH]1)CC2 (stereo unspecified) the results were NPR1 antag 7.4%.
COc1ccc2nc(C[C@@H]3C[C@@H](C(C)C)[C@H](CNC(=O)[C@@H]4CCCC[C@@H]4C(=O)O)C=C3C)[nH]c2c1 was read as NPR1 antag 6.4%.
CCCOc1c(CN2CCCNCC2)cc(Cl)cc1OC was read as NPR1 antag -2.2%.
`CN1CCC(N[C@@H](Cn2cc(F)c(=O)[nH]c2=O)C(=O)O)CC1` gave NPR1 antag 4.5%[70.6 µM].
Screening OC1(c2csc(CN3CCN(c4ccccn4)CC3)n2)CCN(C2CCCC2)CC1 returned NPR1 antag 1.7%[70.6 µM].
Screening COc1cccc(CN2CCOC3(CCN(Cc4ccc5[nH]ccc5c4)CC3)C2=O)c1 returned NPR1 antag -1.7%[70.6 µM].
For CCn1cc(S(=O)(=O)N2CCC3(CC2)N(CCOC)C(=O)CS3=O)cn1 (stereo unspecified) the results were NPR1 antag -1.8%.
`Cn1nccc1CN1CCCC2(C1)NC(=O)c1ccccc1O2` (stereo unspecified) gave NPR1 antag 1.0%[70.6 µM].
`O[C@]1(c2ccccc2)CCN(Cc2ccncc2)C[C@H]1N1CCCC1` gave NPR1 antag -7.4%.
For C[S+](=O)([O-])CCn1ncc2cc(OCc3cccc(-c4cccnc4)c3)ccc21 the results were NPR1 antag 28.2µM*.
CC(=O)N1CCN(CC[C@H]2CN(C(=O)c3cccs3)CC[C@H]2CC(=O)O)CC1 was read as NPR1 antag -1.2%[70.6 µM].
Screening COc1cc(F)ccc1-c1ccnc2nc(CCc3ccccc3)nn12 returned NPR1 antag -3.6%.
Screening CCOc1ccc(C2Cn3nnc(-c4nc(-c5ccccc5C)no4)c3CO2)cc1 (stereo unspecified) returned NPR1 antag -0.3%.
Cc1cc(C2CC(C(=O)NCCc3ccccc3)CN(C(=O)NC(C)C)C2)ccc1F (stereo unspecified) was read as NPR1 antag 3.5%.
CCc1nc2c(=O)n(CC(=O)NCc3ccc(Br)cc3)nc(C)c2s1 was read as NPR1 antag -1.9%.
`CSc1cccc(NC(=O)Cn2c(-c3ccc(Cl)cc3)nc(C)c(CCO)c2=O)c1` gave NPR1 antag -6.9%.
`CCOC(=O)C1=CN(CC(=O)Nc2ccc(C)cc2Cl)S(=O)(=O)N=C1C` gave NPR1 antag -10.7%.
Screening CC(C)NC(=O)NC[C@H]1O[C@@H]2C[C@@H](CC(=O)NCc3cnn(C)c3)O[C@@H]2[C@@H]1O returned NPR1 antag -0.3%[70.6 µM].
Screening Cc1n[nH]c(C)c1CNC(=O)C1CCN(c2cnn(CC3CC3)c(=O)c2)C1 (stereo unspecified) returned NPR1 antag -0.6%.
CCOc1ccccc1NC(=O)N1CCN(C(=O)N2CC3CC(C2)[C@H]2CCCC(=O)N2C3)CC1 (stereo partly specified) was read as NPR1 antag -0.6%.
Screening Cc1nc(-c2cnccn2)n(CC(=O)Nc2cccc(F)c2)c(=O)c1CCO returned NPR1 antag -7.5%.
For CCn1cc(CN2CCCC23CCN(c2ccc(C(F)(F)F)cn2)CC3)c(C)n1 the results were NPR1 antag -22.3%.
For Cc1nc(C)c(C(=O)N2CCCC(c3nn(C)c(=O)n3C(C)C)C2)s1 (stereo unspecified) the results were NPR1 antag -0.3%.
For CCc1ccc(N2CC(c3noc(-c4ccccn4)n3)CC2=O)cc1 (stereo unspecified) the results were NPR1 antag -0.1%.
`Cc1noc([C@@H]2C[C@H](NC(=O)c3cccnc3)CN2C)n1` gave NPR1 antag 2.8%[70.6 µM].
Screening O=C(C[C@@H]1CCNC[C@@H]1Cc1cc(CSc2ccccc2)on1)NCCN1CCOCC1 returned NPR1 antag 3.8%.
CNC(=O)N1CCC(C2CCN(S(=O)(=O)c3cc(F)ccc3OC)C2)CC1 (stereo unspecified) was read as NPR1 antag 6.5%.
`COc1ccc(C(=O)NC2CCN(c3cc(-c4ccc(Cl)cc4)[nH]n3)C2)cc1F` (stereo unspecified) gave NPR1 antag -7.3%.
Cc1cc(C)n(CC(=O)N2CCC3(CC2)NCCc2c3[nH]c3ccccc23)n1 was read as NPR1 antag 1.2%.
Screening Cc1nc2cc(N3CCC(C(=O)O)CC3)cnc2nc1C returned NPR1 antag -7.1%.
Screening COc1ccc(NC(=O)Cn2ccn3nc4c(c3c2=O)CCCCC4)cc1 returned NPR1 antag 15.0%.
For COc1ccc(C(=O)N2CC(c3nc(CCN(C)C(=O)C4CC4)no3)C2)c(OC)n1 the results were NPR1 antag 0.8%.
`Cc1ccc(OCC(=O)N2CCCC2c2nc(C3CCOCC3)no2)cc1` (stereo unspecified) gave NPR1 antag 16.4%.
COCCN1CCCCCC(O)c2cc(C(=O)NCCc3c[nH]c4ccccc34)ccc21 (stereo unspecified) was read as NPR1 antag -22.7%.
For O=C(NCCc1nc(Cc2ccccc2)no1)[C@H]1CCC[C@H](O)C1 the results were NPR1 antag 11.2%.
Screening COc1cccc(CN2CCCN(S(=O)(=O)c3ccccc3)CCC(=O)NCC2)n1 returned NPR1 antag 0.2%.
For COC(=O)N1CCCC(c2nn(-c3ccc(OC)cc3)c(=O)[nH]2)C1 (stereo unspecified) the results were NPR1 antag 13.5%[70.6 µM].
For O=C(NCc1nnc2ccc(-c3ccc(F)cc3)nn12)c1ccoc1 the results were NPR1 antag 4.8%.
Cc1c(F)cccc1NC(=O)Nc1cccc(-c2ccc(N3CCOCC3)nn2)c1 was read as NPR1 antag inconclusive.
`CC(C)CN1CCN(c2nc(CCN)nc3ccccc23)CC1CCO` (stereo unspecified) gave NPR1 antag 3.4%.
`O=C(CCCc1ccccc1)NCc1nnc2cc(-c3nc(C4CC4)no3)ccn12` gave NPR1 antag -3.2%.
Screening COCCOC1CN(C2CCN(Cc3cccc(F)c3)CC2)C12CCCCC2 (stereo unspecified) returned NPR1 antag -2.7%.
For Cc1nn(C)c2nc(-c3ccccn3)nc(NCc3ccc4c(c3)OCO4)c12 the results were NPR1 antag -14.7%.
OC[C@@H]1CNC[C@H]1C1CCN(CC2CCCCC2)CC1 was read as NPR1 antag -3.1%.
For Cc1nnc(-c2cc(-c3cccnc3)ccn2)n1-c1ccccc1 the results were NPR1 antag -2.5%[70.6 µM].
CN(Cc1ccc(F)cc1)Cc1cccc2ccccc12 was read as NPR1 antag 6.3%[70.6 µM].
For Cc1ncsc1CN1CCc2nc(N3CCN(C)CC3)sc2C1 the results were NPR1 antag -0.9%.
For O=C1CNc2ccc(C(=O)N3C[C@H](CO)C[C@H](CN4CCCC4)C3)cc2N1 the results were NPR1 antag -1.4%.
`O=C(NCc1ccc2c(c1)OCO2)C1CN(Cc2ccccc2)C(=O)N1` (stereo unspecified) gave NPR1 antag 0.0%.
Screening c1ccc(-c2nc(C3CCOCC3)no2)c(OC2CCN(C3CCCC3)C2)c1 (stereo unspecified) returned NPR1 antag -11.5%.
For CC1=C(C(=O)N(C)C)C(c2ccc(Cl)cc2)N2C(CC(=O)N3CCOCC3)=CSC2=N1 (stereo unspecified) the results were NPR1 antag 5.8%.
For COC(=O)[C@H](NC(=O)C1=C[C@@H](NC(=O)Nc2ccc(C)cc2)[C@@H](O)[C@H](O)C1)C(C)C the results were NPR1 antag 5.2%[70.6 µM].
`CN(CCc1noc(C2CC2)n1)C(=O)C1CC(=O)N(C(C)(C)C)C1` (stereo unspecified) gave NPR1 antag 3.0%.

Among those listed so far, these have two or more sulfur atoms:
For CCn1cc(S(=O)(=O)N2CCC3(CC2)N(CCOC)C(=O)CS3=O)cn1 (stereo unspecified) the results were NPR1 antag -1.8%.
For Cc1ncsc1CN1CCc2nc(N3CCN(C)CC3)sc2C1 the results were NPR1 antag -0.9%.
